# RGS16-Gao HTS = modulators of RGS16 binding to Galphao, primary screen, biochemical, human proteins, multiplexed bead flow cytometry; bead-based flow cytometry RGS16-Galphao binding, fluorescence; actives lie on both sides; AID 1441, 2008; Regulator of G-protein signaling 16 (Homo sapiens) + Guanine nucleotide-binding protein …; 220,000 compounds, 0.38% hits; binding response (% of control), % at 10 µM;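 active = below 25% or above 175%, edge rows of some plates excepted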;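 note: Galphao activated by GDP with aluminum fluoride before binding; 100% = wells without compound and 0% = beads without RGS; some results beyond the cut were filed as inactive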
# Target sequence (O15492 whole entry, looked up): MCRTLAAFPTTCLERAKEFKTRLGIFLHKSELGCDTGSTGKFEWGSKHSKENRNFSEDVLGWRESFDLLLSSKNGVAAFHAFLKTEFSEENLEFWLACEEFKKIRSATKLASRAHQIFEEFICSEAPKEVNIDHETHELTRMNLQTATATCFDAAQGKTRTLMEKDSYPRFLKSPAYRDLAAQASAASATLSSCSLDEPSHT
# Target sequence (P09471 whole entry, looked up): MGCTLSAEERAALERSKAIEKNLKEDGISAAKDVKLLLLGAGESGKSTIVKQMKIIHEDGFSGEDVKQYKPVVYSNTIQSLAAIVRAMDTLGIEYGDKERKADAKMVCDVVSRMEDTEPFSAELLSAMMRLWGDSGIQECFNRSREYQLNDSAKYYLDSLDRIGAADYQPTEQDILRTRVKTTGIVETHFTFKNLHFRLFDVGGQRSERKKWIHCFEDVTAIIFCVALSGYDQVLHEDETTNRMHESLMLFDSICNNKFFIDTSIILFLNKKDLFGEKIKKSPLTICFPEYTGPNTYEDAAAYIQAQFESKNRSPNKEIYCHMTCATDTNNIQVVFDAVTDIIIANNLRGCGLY
# PKD1 kinase inh = inhibitors of human PKD1 kinase, biochemical, fluorescence polarization. PKD1 kinase fluorescence polarization assay. inhibition, %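 (about 10 µM by stock and volumes)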. 200,000 compounds, 0.056% hits. AID 797, 2007;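 active = inhibition of 50% or more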;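 note: controls were vehicle for no effect and a reference inhibitor for full effect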
# Insulin prom inh = inhibitors of insulin promoter-driven GFP, primary screen, imaging, TRM-6 cells (human fetal islet line), eGFP reporter, cell count; AID 1273, 2008; inhibition, % at 2 µM; reporter expression induced with tamoxifen; 130,000 compounds, 0.9% hits;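 active = inhibition above the mean plus 3 SD, with well images judged a real hit on visual review, cut at about 60% in these data, passing the limit was not always enough; inconclusive = inhibition over the cutoff but images rejected on review; inactive = inhibition not above the cutoff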
# HSV replic up = enhancers of HSV replication in host cells, fold increase, host cell viability. maximum fold increase. HSV replication augmentation in cells. 220,000 compounds, 0.005% hits;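 active = peak rise of 1.5-fold or more in the series; inconclusive = self-fluorescent or not available for retest; tested in PC3 cells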;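 note: first round at 10 µM; read as green reporter fluorescence; hits show the peak of a series up to 25 µM; 1 = signal of infected wells without compound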
# GALR2 agonist = GALR2 receptor agonists, primary screen, cell-based | 140,000 compounds, 0.48% hits | GALR2-expressing cells, agonist activation read-out | activation, %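 (tested at 5 µM)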;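 active = above mean plus 3 SD of all compounds, about 5% in these data, not always enough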;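 note: 0% = vehicle buffer wells and 100% = reference agonist at full effect; tested in CHO reporter cells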
# Target sequence (O43603 whole entry, looked up): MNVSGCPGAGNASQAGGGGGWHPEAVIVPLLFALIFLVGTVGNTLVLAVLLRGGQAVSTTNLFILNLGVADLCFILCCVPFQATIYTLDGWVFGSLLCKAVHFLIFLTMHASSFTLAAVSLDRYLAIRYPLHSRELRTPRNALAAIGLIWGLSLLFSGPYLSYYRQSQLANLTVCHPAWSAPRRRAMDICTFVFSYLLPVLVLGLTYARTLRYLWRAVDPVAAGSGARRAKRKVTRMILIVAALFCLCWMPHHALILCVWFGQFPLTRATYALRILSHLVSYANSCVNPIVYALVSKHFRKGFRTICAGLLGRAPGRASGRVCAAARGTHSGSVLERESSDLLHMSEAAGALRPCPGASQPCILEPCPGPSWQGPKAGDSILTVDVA
# Insulin prom inh cell count = second read-out of Insulin prom inh, no call of its own (marks repeat the call); normalized cell count, %; measured here: cell count, toxicity; reference of the scale not given here;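 cells exposed to compound for 48 h; stained nuclei by imaging scaled within each plate; lower means fewer cells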
# HSV replic up primary fold = second read-out of HSV replic up, no call of its own (marks repeat the call); fold increase; compound at 10 µM; measured here: primary screen fold increase 10 uM; tested in PC3 cells;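 GFP signal in the first replicate; 1 = infected wells without compound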
# Numbers without * were called inactive; i = inactive; ? = inconclusive; . = no result given.
SMILES,RGS16-Gao HTS,PKD1 kinase inh,Insulin prom inh,Insulin prom inh cell count,HSV replic up,HSV replic up primary fold,GALR2 agonist
CC(=O)Oc1ccc(/C=C2\N=C(C3CCCCC3)OC2=O)cc1,102,2,-24,67,i,1.1,.
Cc1ccc([N+](=O)[O-])cc1S(=O)(=O)N(C(=O)c1ccncc1)c1ccc2oc3c(c2c1)CCCC3,101,-2,-12,65,i,0.92,-0.1
COc1cc(C(=O)NCc2nnc(SCC(=O)Nc3nc4ccc(C)cc4s3)o2)cc(OC)c1OC,108,-6,.,.,i,0.91,-0.9
Cc1cccc(-n2ncc3c(NCCc4ccc(S(N)(=O)=O)cc4)ncnc32)c1,98,12,.,.,i,0.82,-2.1
O=C(CCC(=O)c1ccc(F)cc1)Nc1cccc(S(=O)(=O)Nc2cccc(Cl)c2)c1,100,-7,-68,53,i,1,-1.2
CCOc1ccc(C(=O)NCC2CCCO2)cc1 (stereo unspecified),74,-3,-34,73,i,0.82,0.8
Cc1cccc(N(CC(=O)NCc2ccc(F)cc2)C(=O)c2csnn2)c1C,101,2,.,.,i,1,.
O=C(CSc1nc(O)c(C2CCCCC2)c(=O)[nH]1)NCC1CCCO1 (stereo unspecified),113,-5,0,147,i,0.94,-1.7
COc1cccc(/C=N/NC(=O)CNC(=O)c2ccc(S(=O)(=O)N3CCCC3)cc2)c1OC,105,-3,27,161,i,0.85,.
O=C(c1ccco1)c1coc2c1cc(O)c1ccccc12,99,-2,.,.,i,0.82,.
CC1(C)C2CCC1(C)C(Nc1ccccc1)C2 (stereo unspecified),94,.,.,.,i,1.1,.
Cc1nnc(NC(=O)CSc2nnc(CCc3nc4ccccc4[nH]3)n2C)s1,102,1,0,145,i,0.91,0.1
CCNC(=O)CC1C(=O)N(c2ccc(OC)cc2)C(=O)N1Cc1ccc(OC)cc1 (stereo unspecified),111,4,-9,80,i,1,-0.9
CC(=O)Nc1cccc(NC(=O)Nc2ccc(F)cc2F)c1,97,-4,7,58,i,0.92,.
CNc1nc(-c2ccccc2)nnc1C(F)(F)F,104,-4,-25,144,i,0.86,-1.1
Cc1cc(Nc2nc3c(c(=O)n(C)c(=O)n3C)n2C)n(-c2ccc(Cl)cc2)n1,115,-5,45,71,i,0.78,0.8
Cc1ccc(NC(=O)C2C3C=CC4(CN(Cc5cccnc5)C(=O)C24)O3)cc1 (stereo unspecified),91,-5,.,.,i,0.9,-1.0
COC(=O)c1ccc(NC(=S)NCC2CC2)cc1,99,-7,.,.,i,0.88,.
c1ccc(N2CCN(c3nc4ccccc4n4nnnc34)CC2)cc1,102,-3,.,.,?,.,-0.5
O=C(CNc1cc(S(=O)(=O)N2CCCC2)ccc1OCC(F)(F)F)Nc1cccc(C(F)(F)F)c1,95,4,-7,135,i,0.83,-0.7
O=C(NNS(=O)(=O)c1ccccc1)C1CCN(S(=O)(=O)c2ccc(Cl)cc2)CC1,103,9,-8,111,i,0.9,-0.8
O=C1c2cccc3c([N+](=O)[O-])ccc(c23)C(=O)N1c1nccs1,207,-6,-57,80,?,.,1.5
CCOC(=O)c1c(N)sc2c(O)c(Br)ccc12,105,-1,0,102,i,0.97,-1.7
CCOC(=O)CNc1c(-c2ccc(F)cc2)nc2cnccn12,113,-3,-35,127,i,0.94,-1.0
Cc1ccc(S(=O)(=O)c2nnn3c2nc(N2CCCCC2)c2ccccc23)cc1,109,-6,-21,150,i,0.87,1.0
SMILES,RGS16-Gao HTS,PKD1 kinase inh,Insulin prom inh,Insulin prom inh cell count,HSV replic up,HSV replic up primary fold,GALR2 agonist
O=C(N/N=C/c1cccs1)c1cccc(S(=O)(=O)Nc2ccc(Cl)cc2)c1,98,-7,-53,110,i,0.77,.
CN1N=C(C(C)(C)C)CSC1=Nc1ccccc1,97,.,.,.,i,0.99,.
COc1cc(/C=N/Nc2nc(Nc3ccccc3)nc(N3CCOCC3)n2)ccc1OC(=O)c1ccco1,97,-4,-378,32,i,0.75,.
OCCNC(=S)Nc1cccc(Cl)c1Cl,87,.,.,.,i,1.2,.
Cc1csc(NC(=O)Nc2ccc(Cl)cc2)n1,104,15,-4,147,i,0.82,-0.8
CC(N=C1CC(C)(C)CC(=O)/C1=C(/O)CCCN1C(=O)c2ccccc2C1=O)C(=O)O (stereo unspecified),97,-6,-25,156,i,0.91,.
O=C1CCC(=O)N1CNc1cccnc1,100,-17,-53,79,i,0.99,-1.1
COc1cccc(OC)c1C(=O)Nn1c(-c2cccc(C)c2)nc2ccccc2c1=O,96,-5,.,.,i,0.94,.
Cn1cnnc1Sc1cc(N2CCN(S(=O)(=O)c3ccccc3)CC2)ccc1[N+](=O)[O-],70,-5,-33,103,i,0.93,0.5
Cc1c(C(=O)O)cccc1-n1c(C)cc(/C=N/NC(=O)c2cc3ccccc3o2)c1C,116,-2,-11,87,i,1,0.2
CNc1nc(-c2ccccc2)nc(-c2ccc(OC)cc2)c1C#N,101,-6,.,.,i,1,.
Cn1c(SCC(=O)c2ccc3c(c2)OCO3)nnc1C1COc2ccccc2O1 (stereo unspecified),98,-5,.,.,i,0.83,-0.9
O=C(OCc1nnc(-c2ccccc2)o1)c1cc([N+](=O)[O-])ccc1Cl,103,2,.,.,i,0.88,.
CC(OC(=O)CCCc1nc2ccccc2s1)C(=O)NC(N)=O (stereo unspecified),102,.,.,.,i,1.2,.
COc1ccc(-c2ccc3c(N)c(C(=O)c4ccc(OC)c(OC)c4)sc3n2)cc1,101,-3,-38,105,i,0.87,-1.8
CCc1ccc(N2CC(C(=O)Nc3nccs3)CC2=O)cc1 (stereo unspecified),102,5,.,.,i,0.88,-0.2
O=C1c2ccccc2C(=O)C1c1ccnc2ccccc12,98,-5,-488,38,i,0.76,-0.2
CC(C)N1C(=O)S/C(=C/c2ccccc2OCc2ccc(C(=O)O)cc2)C1=O,107,-1,-33,122,i,0.94,.
CNC(=S)NNC(=O)c1oc2nc(-c3ccccc3)cc(-c3ccco3)c2c1N,102,.,.,.,?,.,.
O=C(CCSc1nc(-c2ccc3c(c2)OCO3)cc(C(F)(F)F)n1)NCc1ccco1,120,-8,.,.,i,1,-0.6
Cc1sc2nc(CSc3ccccc3)nc(N3CCC(C(N)=O)CC3)c2c1C,110,-8,14,49,.,.,.
CCOC(=O)NNC(=O)NCCCCCCNC(=O)NNC(=O)OCC,101,.,.,.,i,0.99,.
O=c1[nH]c(CN2CCCC2)nc2sc3c(c12)CCC3,130,-7,11,112,i,0.96,.
Cc1nn(-c2ccccc2)c2sc(C(=O)N(CC(=O)NC3CCCC3)Cc3ccco3)cc12,100,-10,0,118,i,0.91,0.0
COc1cccc(/C=C/C(=O)NCc2cn3cc(Cl)ccc3n2)c1,100,-8,.,.,i,0.99,.
SMILES,RGS16-Gao HTS,PKD1 kinase inh,Insulin prom inh,Insulin prom inh cell count,HSV replic up,HSV replic up primary fold,GALR2 agonist
CCN1C(=O)C(CC(=O)NC2CCCCC2)N(CC)C1=O (stereo unspecified),102,-9,-9,137,i,0.87,-0.5
O=C(Cc1cccs1)N1CCN(c2cccc(Cl)c2)CC1,105,2,20,127,i,0.99,.
COc1cc(C(c2c(C)[nH][nH]c2=O)c2c(C)[nH][nH]c2=O)ccc1OC(C)C,127,4,12,97,i,0.84,-0.9
O=C(O)CCC(=O)NNc1ncnc2ccccc12,97,11,29,117,i,0.85,.
COc1ccc(NC(=O)C2c3cc(OC)c(OC)cc3C(=O)N(C)C2c2cccnc2)cc1OC (stereo unspecified),102,0,-40,109,i,0.95,-1.8
S=C(NCC1CCCO1)Nc1cccc(Cl)c1 (stereo unspecified),104,-7,-68,92,i,1.1,.
C=CC[n+]1c(-c2ccc(OCC)cc2)csc1NNC(=O)Nc1ccccc1,96,-4,37,95,i,0.92,-1.5
COc1ccc(OC)c(-c2nnc(SCC(=O)N3CCOCC3)o2)c1,102,2,30,160,i,1,-1.5
COc1ccccc1NC(=S)N(CCN1CCCCCC1)Cc1cccs1,99,3,-13,67,i,1.1,.
Cc1nccn1CCCNC(=O)CC1C(=O)NCCN1Cc1ccccc1C(F)(F)F (stereo unspecified),105,.,.,.,i,1.1,.
COc1ccc(OC)c2sc(NC(=O)C3CC3)nc12,105,-18,.,.,i,0.64,-1.8
CCOP(=O)(c1ccccc1)C1(C#N)CCCC1 (stereo unspecified),104,4,.,.,i,0.9,-1.4
COc1cc(/C=N/Nc2ccc(C(F)(F)F)cn2)cc(OC)c1O,101,5,.,.,i,0.94,.
CNC(=O)CN1C(=O)C2C3C=CC(C3)C2C1=O (stereo unspecified),99,-15,-15,51,i,0.87,0.2
Cc1cccc2cc(C#N)c(NCCNS(=O)(=O)c3ccccc3)nc12,106,2,.,.,i,0.89,.
COC(=O)NCc1ccc(S(=O)(=O)N2CCOCC2)cc1,87,-7,-8,125,i,0.9,-1.0
O=[N+]([O-])c1cc(S(=O)(=O)Nc2cccc(C(F)(F)F)c2)ccc1-n1nnc2ccccc21,111,-11,16,75,i,0.97,-0.8
CNC(=S)Nc1ccc2nc(C)oc2c1,99,8,10,104,i,0.93,.
CN(Cc1cn(C)nc1-c1cccc(Cl)c1)CC1CCCCO1 (stereo unspecified),94,1,.,.,i,1.1,.
COCC(C)N=C1NN=C(c2cc(C)n(Cc3ccccc3Cl)c2C)CS1 (stereo unspecified),103,-8,.,.,i,0.99,.
CCCCN(C)CCC(=O)Nc1ccc(Cl)cc1,80,-8,14,106,i,0.95,-1.4
COC(=O)COc1ccc(S(=O)(=O)NC2CCCCCC2)cc1,102,-2,9,135,.,.,-2.2
COC(=O)Nc1ccc(S(=O)(=O)Nc2ccc(O)cc2)cc1,97,-3,79*,55*,i,0.8,-0.4
CCOCCOC(=O)CCSc1n[nH]c(=O)[nH]c1=O,105,-6,.,.,i,1.1,-2.8
CC(C)=NNc1nc(-c2ccc(N3C(=O)CCC3=O)cc2)cs1,94,.,.,.,i,1.1,.
SMILES,RGS16-Gao HTS,PKD1 kinase inh,Insulin prom inh,Insulin prom inh cell count,HSV replic up,HSV replic up primary fold,GALR2 agonist
CC(=O)n1cc(/C=C2/N=C(c3ccccc3)OC2=O)c2ccccc21,109,-2,.,.,i,1.1,-1.2
O=C(OCc1cc(Cl)ccc1OC(F)F)c1cccnc1,102,-7,.,.,i,1,.
COc1ccc(C(=O)Nc2cc(C(C)=O)c(/C=C/N(C)C)oc2=O)cc1,102,3,3,127,.,.,-1.7
CC1(C)Oc2ccc3ccc(=O)oc3c2C(/C=N/O)C1=O (stereo unspecified),97,-1,.,.,i,1.1,-0.9
CCOC(=O)C1C2C=CC3(CN(Cc4cccs4)C(=O)C13)O2 (stereo unspecified),102,-2,7,99,i,1,-2.4
CCN(CC)S(=O)(=O)c1cc([N+](=O)[O-])ccc1N=Nc1c(O)n(C)c2ccccc12,83,1,-21,80,i,1,-0.9
CSCC[C@H](NC(=O)Nc1cccc(C(F)(F)F)c1)C(=O)O,97,-11,.,.,i,0.98,-2.0
O=C1OC(Oc2ccccc2)(c2ccccc2)c2ccccc21 (stereo unspecified),99,10,.,.,i,1.2,-1.8
COc1ccc([C@@H]2Sc3ccccc3N(CCN(C)C)C(=O)[C@@H]2OC(C)=O)cc1,.,-8,-17,88,i,0.86,0.0
O=C(NCc1cccc(C(F)(F)F)c1)c1cc(Cl)cc(Cl)c1,65,-10,16,149,i,0.88,-0.6
N#CCCN(Cc1cccnc1)C(=S)NC(=O)c1ccc(S(=O)(=O)N2CCCC2)cc1,97,-5,36,227,.,.,.
COc1ccc(C(=O)NCc2ccccc2OC)cc1,102,0,-5,82,i,0.79,-2.6
CCN(CC(=O)Nc1ccc(C(C)=O)cc1)CC(=O)Nc1ccccc1C(F)(F)F,99,-2,.,.,i,1.1,.

# Molecules listed so far that have a cyano group, in the order listed:
SMILES,RGS16-Gao HTS,PKD1 kinase inh,Insulin prom inh,Insulin prom inh cell count,HSV replic up,HSV replic up primary fold,GALR2 agonist
CNc1nc(-c2ccccc2)nc(-c2ccc(OC)cc2)c1C#N,101,-6,.,.,i,1,.
CCOP(=O)(c1ccccc1)C1(C#N)CCCC1 (stereo unspecified),104,4,.,.,i,0.9,-1.4
Cc1cccc2cc(C#N)c(NCCNS(=O)(=O)c3ccccc3)nc12,106,2,.,.,i,0.89,.
N#CCCN(Cc1cccnc1)C(=S)NC(=O)c1ccc(S(=O)(=O)N2CCCC2)cc1,97,-5,36,227,.,.,.

# Screens deposited in PubChem by several laboratories.
